Compound activity as filed in PubChem BioAssay.
PMP22 txn prim – Cell-based coincidence reporter assay to measure PMP22 gene transcription in S16 Pmp22-F2sN cells - Primary screen | Potency, µM (doses to about 57.5 µM), without a hit: top-dose activity change, negative = inhibition, most hits filed as inhibitors | S16 Pmp22-F2sN Schwann cells (luciferase reporters placed in the Pmp22 gene), FLuc/NLuc coincidence luminescence, 24 h | actives 2% (n = 43,000); active = clear falling dose curves in both reporters; inconclusive = both reporters move, but less clearly or upward; inactive = either reporter flat; the % is the NLuc reporter signal; also: % is scaled to controls: 0 for no effect and ±100 for the full control effect; some results filed as inactive show a strong effect at the top dose
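Schwann cells carrying the coincidence reporter were exposed to library compounds for 24 h at 37C, then lysed and read for FLuc and, after quenching, NLuc luminescence on a CCD imager.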
HTT promoter inh – Primary qHTS for Identification of Small Molecule Inhibitors of Huntingtin Promoter Activity. HEK293 HTT promoter firefly luciferase reporter (activity 0% = vehicle and -100% = no light), 24 h. Potency, µM (top dose mostly 57.5 µM), inactives show at the highest dose activity change, negative = inhibition, usual class: inhibitors. actives 0.93% (n = 48,000); active = well fitted inhibition curve with a large enough effect; inconclusive = small, poorly fitted or top-dose-only effect; inactive = no such curve, though single readings can be large or run the other way; also: nearly all actives have a fitted effect of over 50% in size
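HEK293 luciferase promoter-reporter cells (2,500/well) plated 24 h, then compounds added at up to 57.5 uM final for 24 h at 37 °C. Firefly luminescence by Dual-Glo, normalized to vehicle (0%) and zero RLU (-100%).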
An asterisk follows results filed as active; ? = inconclusive; . = not tested or not shown; [ ] = dose if it differs, or a comment. Potency is read from the fitted curve at half-maximal effect.

Screens in order – PMP22 txn prim	HTT promoter inh
CCOC(=O)c1c(Nc2ccccc2)nnc(-c2ccccc2)c1-c1ccccc1
  ?	-28%
COc1ccc(NC(=O)Cn2c(=O)n(CCC(=O)NCCc3ccc(OC)c(OC)c3)c(=O)c3ccccc32)cc1Cl
  1%	-6%
CCN(C(=O)C1CCN(S(=O)(=O)c2ccc3c(c2)CCCN3C(C)=O)CC1)c1cccc(C)c1
  ?	-23%
Cc1sc2c(c1C)c(=O)n(-c1ccccc1)c(=O)n2CC(=O)c1ccc(Cl)cc1
  14%	-16%
CC1CN(C(=O)CCC(=O)NCc2cccc(Cl)c2)c2ccccc2S1 (stereo unspecified)
  -2%	-32%
COc1cccc(C2c3c(oc4cc(C)cc(C)c4c3=O)C(=O)N2CCc2ccc(OC)c(OC)c2)c1 (stereo unspecified)
  6%	-13%
COc1cccc(COC(=O)c2nn(-c3ccccc3)nc2N)c1
  3%	4%
COc1cc(OC)c(NC(=O)CN(C)S(=O)(=O)c2ccc3c(c2)CCCC(=O)N3)cc1Cl
  ?	?
Cc1oc2c(c(C)cc3oc(=O)c(CC(=O)NCCc4ccc(Cl)cc4)c(C)c32)c1C
  -18%	27%
Cc1ccc(N2CC(NC(=O)CCCc3ccccc3)CC2=O)cc1 (stereo unspecified)
  46%	-19%
COc1cccc(NC(=O)CCc2c(C)nc3nc(CNC(=O)c4cccc(F)c4)nn3c2C)c1
  -16%	-4%
Cc1ccccc1NC(=O)c1ccc2c(O)c(S(=O)(=O)c3ccccc3)c(=O)[nH]c2c1
  3%	9%
CCN(CC)S(=O)(=O)c1ccc(-c2csc(=Nc3cccc(C(F)(F)F)c3)n2Cc2ccc3c(c2)OCO3)cc1
  6%	?
O=C(Nc1ccccc1Cl)N1CCC(CN2CCCC2)CC1
  -8%	-18%
COc1cccc(CSc2nc3n(n2)C(c2cccc(F)c2)C(C(=O)Nc2ccccc2C)=C(C)N3)c1 (stereo unspecified)
  -8%	6%

Later entries:
Screens in order – PMP22 txn prim	HTT promoter inh
O=C(COC(=O)c1cc(-c2ccccc2)nc2ccccc12)c1ccc(Br)cc1
  1%	-2%
CCCCOc1ccc(C(=O)N(Cc2ccccc2)C2CCS(=O)(=O)C2)cc1 (stereo unspecified)
  -12%	-26%
Cc1cccc(C(=O)Nc2ccccc2C(=O)OCc2cc(=O)n3nc(C4CC4)sc3n2)c1
  -5%	-13%
CCOc1ccc(CNC(=O)Cn2nc(C)c3nn(-c4ccc(Cl)cc4)c(C)c3c2=O)cc1OC
  -6%	-4%
CCC(=O)Nc1sc2c(c1C(=O)Nc1ccc(OC)cc1)CCC(C(C)(C)C)C2 (stereo unspecified)
  -7%	?
Cc1ccc(CCNC(=O)C2CCN(Cc3nc(-c4ccccc4C)oc3C)CC2)cc1
  ?	-25%
O=c1c(N2CCN(c3cccc(C(F)(F)F)c3)CC2)csc2ccc(Cl)cc12
  ?	6%
O=C(C1CCCN(S(=O)(=O)c2cccc3nonc23)C1)N1CCN(c2ccccc2F)CC1 (stereo unspecified)
  ?	?
CCn1c(C)c(C2N3CC4(C)CN2CC(CC)(C3)C4=O)c2ccccc21 (stereo unspecified)
  -7%	-5%
COc1ccccc1NC(=O)C1=C(C)Nc2nc(SCc3ccccc3F)nn2C1c1cccs1 (stereo unspecified)
  ?	-20%
CC(=O)c1cccc(NS(=O)(=O)c2cccc(S(=O)(=O)c3ccc(Br)cc3)c2)c1
  -6%	32µM*
COC(=O)c1ccc(CN(Cc2ccc(OC)c(OC)c2)S(=O)(=O)c2ccc(F)c(C(=O)Nc3cc(C)ccc3C)c2)cc1
  -6%	-12%
COC(=O)c1c(-c2cccs2)csc1NC(=O)c1cc(OC)cc(OC)c1
  -31%	30%
Cc1ccccc1Nc1c(-c2ccco2)nc2c(C)cccn12
  -8%	-13%
O=C(Cn1cc(SCc2c(F)cccc2Cl)c2ccccc21)N1CCCCCC1
  ?	15%

For reference, 3 of the compounds above.
Screens in order – PMP22 txn prim	HTT promoter inh
O=C(COC(=O)c1cc(-c2ccccc2)nc2ccccc12)c1ccc(Br)cc1
  1%	-2%
CCCCOc1ccc(C(=O)N(Cc2ccccc2)C2CCS(=O)(=O)C2)cc1 (stereo unspecified)
  -12%	-26%
Cc1cccc(C(=O)Nc2ccccc2C(=O)OCc2cc(=O)n3nc(C4CC4)sc3n2)c1
  -5%	-13%

More compounds.
Screens in order – PMP22 txn prim	HTT promoter inh
Cc1ccccc1NC(=O)CSc1cn(CC(=O)N(C(C)C)C(C)C)c2ccccc12
  ?	-22%
Cc1ccc(N2CCN(c3cc(C)nc4c(-c5ccc(Cl)cc5)c(C)nn34)CC2C)cc1 (stereo unspecified)
  7%	-15%
COc1ccc(NC(=O)c2c(NCc3cccc(OC)c3)sc3c2CCC3)cc1
  -77%	-7%
CCOC(=O)c1cc(-c2ccc(OC)c(S(=O)(=O)NCc3ccccc3Cl)c2)on1
  9%	-9%
Cc1ccccc1CNC(=O)c1ccc2nc(C(C)C)oc2c1
  -15%	-5%
COC(=O)c1cc(C)nc2c1c(=O)nc(SCc1ccccc1Cl)n2C1CC1
  -76%	?
COc1ccc(CCNC(=O)CCCCn2c(=O)c3ccccc3n(Cc3cc(C)ccc3C)c2=O)cc1OC
  -16%	-6%
Cc1ccc(NC(=O)C2CCCN(c3ncnc4c3nc3n4CCCCC3)C2)c(Br)c1 (stereo unspecified)
  -1%	-9%[11.5 µM]
CCOCCCNC(=O)c1ccc(-n2c(-c3ccccc3)cc3c2CCCC3)cc1
  ?	13%
CCOC(=O)c1c(C)[nH]c(CCC(=O)NCc2ccccc2C)c1C
  -23%	-7%
CCN1CCC(N(Cc2ccc(F)cc2)C(=O)Nc2cccc(C(F)(F)F)c2)CC1
  ?	-29%
CCOc1ccc(-c2nn(-c3ccccc3)cc2C2NC(=O)NC(C)=C2C(=O)OC(C)C)cc1 (stereo unspecified)
  ?	-26%
COc1cccc(-c2nnc3n(Cc4ccccc4Cl)c(=O)c4ccccc4n23)c1O
  ?	?
Cc1ccc(Cn2c(=O)c3ccccc3n3c(-c4ccccc4)nnc23)cc1
  -14%	-12%
Cc1oc(-c2ccccc2F)nc1Cn1c(SCc2cccc(C(F)(F)F)c2)nc2ccncc21
  ?	?

(listing goes on)
Screens in order – PMP22 txn prim	HTT promoter inh
COc1ccc(Cl)cc1NC(=O)Cn1c(=O)c2ccccc2n2nncc12
  -15%	-9%
COc1ccc(-n2ncc(C(=O)N3CCN(C(=O)c4ccco4)CC3)c2C2CCN(C(=O)OC(C)(C)C)CC2)cc1
  -2%	17%
CCOc1ccc(NC(=O)CSc2nc(-c3ccc(OC)cc3)nc3c2Cc2c(CO)cnc(C)c2O3)cc1
  -9%	-13%
COc1cccc(CNC(=O)Cc2csc3nc(-c4ccccc4)cn23)c1
  7%	-1%
Cc1cc(Br)ccc1NC(=O)C(Cc1ccccc1)NS(=O)(=O)c1ccc(Br)s1 (stereo unspecified)
  ?	-30%
COc1ccc(Cl)cc1NC(=O)c1ccc2c(c1)CCN2S(C)(=O)=O
  ?	-13%
CCCCOc1cccc(C(=O)Nc2ccc3oc(-c4cccnc4)nc3c2)c1
  -5%	-5%
CCOc1ccc(CN2C(=O)c3ccccc3Sc3ccc(C(=O)NCc4ccc(C)cc4)cc32)cc1
  16%	-24%
COc1ccc(NC(=O)COc2ccc(S(=O)(=O)NC3CCCCC3)cc2)c(OC)c1
  -20%	-12%
COc1cccc(C2CC(=O)Nc3cc(OC)c(OC)c(OC)c32)c1OC(C)C (stereo unspecified)
  ?	10%
CC(=O)N1CCCc2cc(S(=O)(=O)Nc3ccc(C)c(F)c3)ccc21
  -14%	-30%
COc1cccc(C(=O)NC2CC(=O)N(c3ccc4c(c3)OCCO4)C2)c1OC (stereo unspecified)
  -28%	-1%
COc1ccc(S(=O)(=O)N(Cc2nc(-c3ccccc3)no2)C2CCCCC2)cc1
  ?	-27%
COc1ccccc1NC(=O)CN(c1cc(C)cc(C)c1)S(=O)(=O)c1c(C)[nH]c(=O)[nH]c1=O
  -5%	-9%
NS(=O)(=O)c1ccc(CCNC(=O)C2COc3ccccc3C2)cc1 (stereo unspecified)
  -11%	-14%

A second format for part of the listing above:
smiles,PMP22 txn prim,HTT promoter inh
COc1ccc(NC(=O)COc2ccc(S(=O)(=O)NC3CCCCC3)cc2)c(OC)c1,-20%,-12%
NS(=O)(=O)c1ccc(CCNC(=O)C2COc3ccccc3C2)cc1 (stereo unspecified),-11%,-14%
COc1ccc(S(=O)(=O)N(Cc2nc(-c3ccccc3)no2)C2CCCCC2)cc1,?,-27%
CCOc1ccc(NC(=O)CSc2nc(-c3ccc(OC)cc3)nc3c2Cc2c(CO)cnc(C)c2O3)cc1,-9%,-13%

Remaining list, next part:
Screens in order – PMP22 txn prim	HTT promoter inh
Cc1ccc2c(c1)c1c(c(=O)n(-c3ccccc3)c(=O)n1CC(=O)NCCC1=CCCCC1)n2C
  ?	-6%
COc1ccc(OC)c(CNS(=O)(=O)c2ccc(-c3cc(C(F)(F)F)on3)s2)c1
  ?	?
COCCCNC(=O)c1cnc2sc(N3CCCCCC3)nn2c1=O
  -22%	7%
Cc1cc(C)cc(NCc2nnc3n2CCCCC3)c1
  -15%	-10%
Cc1cc(NC(=O)CSc2ncc(C(=O)Nc3ccc(F)cc3)c(=O)n2C)no1
  0%	-9%
Cc1ccc(C)c(N2CCN(C(=O)Cn3cnc4onc(-c5ccc(F)cc5)c4c3=O)CC2)c1
  9%	-8%
Oc1ccc(CCNCCCCCCNCCc2ccccc2)cc1O
  .	3%
CCOC(=O)c1c(-c2ccc(C)cc2)csc1NC(=O)c1cc(=O)c2cc(C)c(C)cc2o1
  -33%	-10%
CCCCN(CC)C(=O)CSc1nc2n[nH]c(C)c2c(=N)n1-c1cccc(OC)c1
  ?	?
Cc1ccc(C)c2sc(N3CCN(C(=O)c4ccco4)CC3)nc12
  ?	0%
CCS(=O)(=O)N1CCc2cc(C(=O)Nc3cc(C)cc(C)c3)ccc21
  7%	-1%
CCN1C(=O)c2ccccc2Sc2ccc(NC(=O)Cc3ccc(OC)c(OC)c3)cc21
  24%	-23%
O=C(Nc1cc2ccc(O)cc2oc1=O)c1ccc(F)cc1
  ?	39%[activator]
Cc1ccccc1-c1nc(CS(=O)(=O)CC(=O)Nc2cc(Cl)cc(Cl)c2)c(C)o1
  1%	?
CCN(CCCNC(=O)c1cc(Nc2ccc(OC)cc2OC)nc2ccccc12)c1cccc(C)c1
  15µM*	-18%

More compounds.
Screens in order – PMP22 txn prim	HTT promoter inh
CCN(CC)S(=O)(=O)c1ccc2c(c1)N(CC(=O)NCc1ccccc1)C(=O)CS2
  2%	-17%
Cc1c(C(=O)NCCc2ccc(Cl)cc2)cccc1-n1cnc2cccnc21
  -6%	?
Cc1nnc(NC(=O)CSc2nc3c([nH]c4ccccc43)c(=O)n2-c2cccc(Cl)c2)s1
  -25%	-14%
Clc1ccc(Nc2nc(-c3ccccc3)c3cc(Cl)ccc3n2)cc1
  -11%	-4%
CCOC(=O)c1c(C)oc2ncnc(Nc3cc(Cl)ccc3OC)c12
  -11%	-1%
O=C(Nc1cccc(Br)c1)N1CCC(CN2CCCCCC2)CC1
  -26%	-9%
Cc1ccc(NC(=O)CSc2nc3ccc(NC(=O)CCc4ccccc4)cc3s2)cc1
  -30%	-5%
COc1ccc(NC(=O)c2ccc3[nH]c(C)cc(=O)c3c2)cc1
  4%	15%
OC(CCN1CCCC1)(c1ccccc1)C1CCCCC1 (stereo unspecified)
  .	0%
COC(=O)c1c(NC(=O)CS(=O)(=O)c2ccc(C)cc2)sc2c1CCCC2
  ?	?
CCOc1ccccc1NC(=O)c1ccc2c(Cl)c3c(nc2c1)CCC3
  -15%	29%
Cn1c2ccccc2c2c(C(=O)N3CCN(c4cccc(C(F)(F)F)c4)CC3)cn(C3CCCCC3)c(=O)c21
  ?	?
CCOc1cc(C2c3c(-c4cc(C)ccc4O)n[nH]c3C(=O)N2CCCOC(C)C)ccc1O (stereo unspecified)
  ?	?
CCOCCCNC(=O)C1CCCN(c2ncnc3onc(C)c23)C1 (stereo unspecified)
  ?	?
CCOc1ccc(-n2c(=O)c3c(C)c(C)sc3n(CC(=O)N(CC)Cc3ccccc3)c2=O)cc1
  ?	-2%

(further entries)
Screens in order – PMP22 txn prim	HTT promoter inh
Cc1ccc(-c2c(CN3CCN(c4cc(C)ccc4C)CC3)csc2C)cc1
  -10%	-6%
CCOc1ccc(NC(=O)c2ccc3[nH]c(C)cc(=O)c3c2)cc1
  -1%	-8%
CCc1ccc(-c2cn3nc(CC)sc3n2)cc1
  -25%	7%
Cn1c(SCC(=O)Nc2nc3ccccc3s2)ncc(C(=O)Nc2ccccc2)c1=O
  -3%	3%
COc1ccc(NC(=O)Cn2cc(C(=O)C3CCCCC3)c3ccccc32)cc1
  ?	-21%
COc1ccc(NC(=O)C2CCCN(c3ncnc4c3nc3n4CCCCC3)C2)c(OC)c1 (stereo unspecified)
  -12%	24%[11.5 µM]
Cc1cc2c(cc1S(=O)(=O)NCc1ccccc1Cl)OCCN2C
  -29%	-3%
CCOC(=O)C1CCN(c2nc3c(S(=O)(=O)c4ccc(C)c(C)c4)nnn3c3ccc(Cl)cc23)CC1
  -27%	-14%
O=C(CSc1nnc2[nH]c(=O)cc(-c3ccccc3)n12)Nc1ccc(OC(F)(F)F)cc1
  ?	19%
